TRPML1 blocker = qHTS for Inhibitors of the Human Mucolipin Transient Receptor Potential 1 (TRPML1); Mucolipin-1 (Homo sapiens), Q9GZU1; AID 624415, 2012; 390,000 tested, 0.02% active; TRPML1-inducible cells, Ca2+ dye fluorescence, FDSS; active compounds read low; inhibition of EC80 agonist-evoked calcium signal; activity change, negative = inhibition, % (no concentration beside the values); in the data active means activity change below about -50%; inconclusive means about -30% to -50%; inactive means above about -30%;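 note: stimulus is agonist 54-4 at its EC80 concentration; % is set by controls: 0 for no effect and ±100 for the full control effect; compound concentration not given in the record; the text of the record puts the active cut at -80%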
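TRPML1-DL cells, Tet-induced overnight (~16 h, 37 °C) at 1,500 cells/well, were loaded with Ca8 no-wash dye plus quencher for 45-90 min at room temperature. Compounds were pinned during FDSS kinetic reading; agonist 54-4 at EC80 (4 uM final) then added.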
D2 ag = Beta-Arrestin HTS for Positive Allosteric Modulators of the Human D2 Dopamine Receptor: Agonists; D(2) dopamine receptor (Homo sapiens), P14416; DiscoveRx PathHunter D2 beta-arrestin, luminescence, 90 min; 100% = 57 uM dopamine signal; activation, % (concentration not given with the values); 360,000 tested, 0.084% active; in the data active = activation above about 40%; inconclusive = about 15% to 40%; inactive = below about 15%; note: compound concentration not given in the record; the text of the record calls up to 30% inactive
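DiscoveRx PathHunter D2 beta-arrestin cells (2,100/well) attached overnight, then compound-stimulated 90 min at 37 C in HBSS/10 mM HEPES/0.1% Tween-20 buffer; beta-galactosidase complementation read by luminescence after 1 h at ambient temperature. Dopamine 57 uM final (EC100) as control.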
D2 potentiator = Beta-Arrestin HTS for Positive Allosteric Modulators of the Human D2 Dopamine Receptor: Potentiators; potentiation, % (no concentration beside the values); 360,000 tested, 0.23% active; D(2) dopamine receptor (Homo sapiens), P14416; DiscoveRx D2 beta-arrestin cells, luminescence, 90 min; 100% = 57 uM dopamine signal; AID 624464, 2012; active = potentiation of 50% or more; inconclusive = 30% to 50%; inactive = 30% or less;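 note: compound concentration not given in the record; tested on top of an EC20 dose of dopamine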
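D2 cells co-treated with compound plus 50 nM dopamine (EC20) for 90 min at 37 deg C to detect potentiation. Beta-arrestin recruitment was read as enzyme-fragment luminescence after 1 h at ambient temperature. Full response was set by 57 uM dopamine.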
PINK1 modulator = A Quantitative High throughput Screen to Identify Chemical Modulators of PINK1 Expression. Potency, µM (series often up to 76.6 µM), inactives show top-dose activation (PINK1 increase), hits mostly activators. 410,000 tested, 0.2% active. AID 624263, 2012. PINK1 immunofluorescence, high-content cytometry, 24 h; active = well fitted activation curve with a large enough effect; inconclusive = small, poorly fitted or top-dose-only effect; inactive = flat fitted curve, though single readings scatter; cell line not stated here;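 note: potency is the fitted concentration of half-maximal effect; % of control where 0% means no effect; nearly all actives have a fitted effect of over 65% in size; a mitochondrial uncoupler was the plate control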
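Compound titrations (5 concentrations, 24 h) on a stable cell line; DMSO and CCCP controls. Endpoint: fixed-cell PINK1 immunofluorescence with mitochondrial, cell and nuclear markers, scanned by microplate cytometer.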
Six1-Eya2 blk = qHTS Assay for Inhibitors of the Six1/Eya2 Interaction. Homeobox protein SIX1 (Homo sapiens) + Protein phosphatase EYA2 (Homo sapiens), …. AlphaScreen GST-Six1/His-Eya2 binding, biochemical; active compounds read low; control for the full effect not named in the record. activity change, % (test concentration not listed). 360,000 tested, 0.56% active; in the data active = activity change below about -65%; inconclusive = about -30% to -65%; inactive = above about -30%; note: % is set by controls: 0 for no effect and ±100 for the full control effect
Target sequence (O00167 whole entry, looked up): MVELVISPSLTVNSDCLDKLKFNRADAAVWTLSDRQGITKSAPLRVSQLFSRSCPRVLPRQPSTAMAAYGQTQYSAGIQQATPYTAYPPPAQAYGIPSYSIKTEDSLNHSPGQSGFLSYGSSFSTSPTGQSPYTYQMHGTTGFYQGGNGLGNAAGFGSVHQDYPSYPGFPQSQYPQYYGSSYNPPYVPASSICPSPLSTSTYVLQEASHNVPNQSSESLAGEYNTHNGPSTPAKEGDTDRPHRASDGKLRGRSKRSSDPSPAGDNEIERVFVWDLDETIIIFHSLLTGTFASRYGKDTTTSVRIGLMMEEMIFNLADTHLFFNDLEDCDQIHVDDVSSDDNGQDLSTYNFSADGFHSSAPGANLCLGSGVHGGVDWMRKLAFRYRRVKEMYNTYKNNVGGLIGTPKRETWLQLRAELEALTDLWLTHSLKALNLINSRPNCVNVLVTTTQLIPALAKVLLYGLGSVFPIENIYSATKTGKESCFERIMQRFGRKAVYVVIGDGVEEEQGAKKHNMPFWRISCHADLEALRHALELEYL
Target sequence (Q15475 whole entry, looked up): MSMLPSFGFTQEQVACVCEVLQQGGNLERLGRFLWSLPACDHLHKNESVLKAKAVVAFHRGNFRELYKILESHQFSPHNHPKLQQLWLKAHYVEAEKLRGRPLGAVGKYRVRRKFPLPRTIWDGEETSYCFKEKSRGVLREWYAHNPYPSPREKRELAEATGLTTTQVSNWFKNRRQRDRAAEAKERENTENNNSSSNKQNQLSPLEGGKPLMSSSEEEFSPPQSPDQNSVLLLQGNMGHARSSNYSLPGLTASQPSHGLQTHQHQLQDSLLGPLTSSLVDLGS
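GST-Six1 + His-Eya2 (5X stock: 250/500 nM); Tris pH 8.0, 300 mM NaCl, 0.05% BSA, 0.02% Tween 20; GSH donor/Ni acceptor beads; 1 h 37 °C dark; AlphaScreen readout.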
TRPML1 ag = qHTS for Agonists of the Human Mucolipin Transient Receptor Potential 1 (TRPML1); activation, % (no concentration beside the values); 410,000 tested, 0.12% active; TRPML1-expressing cells, Ca2+ dye fluorescence, FDSS; host cell line not named in the record; reference of the full effect not given here; Mucolipin-1 (Homo sapiens), Q9GZU1; in the data active = activation above about 50%; inconclusive = about 30% to 50%; inactive = below about 30%; note: 0% is about no effect; the text of the record puts the active cut at 80%
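TRPML1-DL cells, Tet-induced overnight (~16 h, 37 degrees C), loaded 45-90 min at room temperature with Ca8 no-wash calcium dye plus quencher. FDSS fluorescence: 10 s baseline, compound pin-transfer, 110 s agonist read, then EC80 54-4 (4uM final) and 110 s antagonist read.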
Numbers without * were called inactive; ? = inconclusive; · = not tested or not shown; & = joins results of further samples; [ ] = dose if it differs, or a comment.

SMILES | TRPML1 blocker | D2 ag | D2 potentiator | PINK1 modulator | Six1-Eya2 blk | TRPML1 ag
CCOC(=O)c1c(C)[nH]c(C(=O)OCC(=O)Nc2cc(C)c(Cl)cc2OC)c1C | -5 | 0.2 | 13 | 17% | 5 | -0.5
Cc1ccc(NCc2nnc3n2CCCCC3)cc1Cl | 2 | · | · | -5.7% | · | 2.3
Cc1ccc(N2C(=O)N(CC(=O)Nc3ccc(C)cc3C)C(=O)C2C)cc1 (stereo unspecified) | 5 | 0.8 | -7 | -0.8% | -2 | 1.2
CCOCC(=O)Nc1ccc(-c2cn3cccnc3n2)cc1 | 0 | -2.1 | -5 | 3.6%[38.3 µM] | 23 | -0.3
CCN(C(=O)CN1CCN(c2ccc(O)cc2)CC1)c1c(N)n(Cc2ccccc2)c(=O)[nH]c1=O | -7 | 6.0 | 24 | 1.1% | -6 | 1.2
N=C(N)SCc1ccc(O)c([N+](=O)[O-])c1 | · | -4.8 | -8 | 4.0% | 1 | ·
O=C(NC(c1ccc(Cl)cc1)c1cnccn1)C1CCN(Cc2ccc(Oc3ccccc3)cc2)CC1 (stereo unspecified) | · | -3.7 | -15 | 5.4% | -7 | 0.0
CC(=O)c1csc(-c2cccc(-c3nc4ccc(Cl)cn4c3NC3CCCCC3)c2)c1 | 24 | -4.1 | -11 | 0.5% | 0 | 0.3
CNc1snc(C)c1C(=O)OCC(=O)NCc1ccccc1OC | 20 | -0.1 | 7 | 6.7% | 3 | 0.2
CC(C)(C)NC(=S)NC(=O)C12CC3CCC(CC(C3)C1)C2 | 65 | -1.4 | 3 | 22% | 1 | 2.5

The last five entries of the part before open the next one.
SMILES | TRPML1 blocker | D2 ag | D2 potentiator | PINK1 modulator | Six1-Eya2 blk | TRPML1 ag
N=C(N)SCc1ccc(O)c([N+](=O)[O-])c1 | · | -4.8 | -8 | 4.0% | 1 | ·
O=C(NC(c1ccc(Cl)cc1)c1cnccn1)C1CCN(Cc2ccc(Oc3ccccc3)cc2)CC1 (stereo unspecified) | · | -3.7 | -15 | 5.4% | -7 | 0.0
CC(=O)c1csc(-c2cccc(-c3nc4ccc(Cl)cn4c3NC3CCCCC3)c2)c1 | 24 | -4.1 | -11 | 0.5% | 0 | 0.3
CNc1snc(C)c1C(=O)OCC(=O)NCc1ccccc1OC | 20 | -0.1 | 7 | 6.7% | 3 | 0.2
CC(C)(C)NC(=S)NC(=O)C12CC3CCC(CC(C3)C1)C2 | 65 | -1.4 | 3 | 22% | 1 | 2.5
CNC(=O)CSCc1cnn(-c2ccccc2)c1-n1cccc1 | -8 | -0.6 | -9 | 0.0%[38.3 µM] | -1 | 0.2
Cc1ccccc1C(N)c1ccncc1 (stereo unspecified) | -2 | -3.8 | -17 | -0.6% | 11 | -0.5
O=C(CC1SC(=O)N(Cc2ccccc2Cl)C1=O)Nc1nccs1 (stereo unspecified) | 8 | -1.7 | -5 | 19% | -2 | 0.5
CCC(C)(C)NC(=O)C(c1cccs1)N(CC1CCCO1)C(=O)Cn1nnc2ccccc21 (stereo unspecified) | 11 | -1.8 | -7 | 0.0% | -2 | 1.2
CCN(CC)c1ccc(NC(=O)c2cc3ccccc3o2)c(C)c1 | -5 | 0.1 | -9 | 9.7%[38.3 µM] | -12 | 0.7
Cc1ccc(Cn2ccnc2SCC(=O)Nc2ccc3c(c2)OCCO3)cc1 | -9 | · | · | 21% | · | 2.0
Cc1cc(=O)[nH]c(-n2[nH]c3c(c2=O)CCCC3)n1 | 2 | -3.8 | -8 | 3.8% | ? | 10
CCN(CC(=O)NCC1CCCO1)S(=O)(=O)c1ccc2ccccc2c1 (stereo unspecified) | -9 | 4.3 | -7 | 2.7% | -6 | -0.5
CCOC(=O)c1oc2ccc(CNC3CCCCC3)c(Cl)c2c1C | 44 | -0.8 | -33 | 20%[38.3 µM] | -2 | 1.1
Cc1cc(C(=O)NNc2c(Cl)cccc2Cl)no1 | -4 | -2.1 | -15 | 1.3% | -2 | -0.7
Cc1ncc([N+](=O)[O-])n1CC(C)O (stereo unspecified) | -10 | -3.8 | -6 | -1.1% | 6 | -0.1
Nc1cc2c(cc1[N+](=O)[O-])OCCO2 | 23 | -3.3 | -26 | -0.6% | -8 | 1.2
CCCCn1c(SCC(=O)N2c3ccccc3CCc3ccccc32)nc2c1c(=O)n(C)c(=O)n2C | -10 | -2.2 | 13 | 0.8% | 1 | 1.4
CN(C)CC1CCCCC1OC(=O)/C=C/c1ccc(Cl)cc1Cl (stereo unspecified) | 21 | 6.0 | -7 | 3.1% | -4 | 0.9
CCOC(=O)C[C@H]1c2ccc(C(F)(F)F)cc2S(=O)(=O)N1Cc1ccccc1 | -4 | -1.6 | -5 | -0.5% | 16 | -0.6&0.3
COc1cccc(C2CC(=O)Nc3c2c(=O)[nH]c2ncnn32)c1 (stereo unspecified) | -11 | -4.2 | -4 | 0.2% | 2 | -1.6
Cc1ccc(-c2cc(C(=O)O)c3ccccc3n2)c(C)c1 | -14 | -2.8 | -9 | 1.6% | 2 | -0.6
Cc1ccc(S(=O)(=O)NCCNS(=O)(=O)c2ccccc2Br)cc1 | 11 | -4.8 | -4 | 1.5% | 0 | -1.0
CCOc1ccc(NC(=O)CCCNC(=O)Cn2cnc3sc(C)c(C)c3c2=O)cc1 | 1 | -0.8 | -5 | 2.6% | -9 | -0.6
CCOC(=O)c1csc(NC(=O)CN2CCN(C)CC2)n1 | -9 | 5.7 | -29 | 1.1% | -2 | -0.2
COc1ccc(Cl)cc1NC(=O)CSc1nnc(C)n2c1cc1sccc12 | -2 | · | · | -0.1% | · | -0.6
CCn1cc(/C=C(\NC(=O)c2ccc(OC)c(OC)c2)C(=O)NCCCO)c2ccccc21 | -6 | -3.3 | -4 | 1.7% | -5 | -0.4
COc1ccc(NC(=O)/C(=C\c2ccc(OS(=O)(=O)c3ccc(C)cc3)cc2)NC(=O)c2ccccc2)cc1 | 18 | -0.5 | 7 | 1.0% | -1 | 1.0
Cc1cc(C)cc(NS(=O)(=O)c2ccc(NC(=S)NC(=O)c3cccs3)cc2)c1 | 15 | -12 | -20 | ? | -15 | -0.6
Cc1ccc(Cn2c(=O)n(CCCCC(=O)NCCc3ccc(Cl)cc3)c(=O)c3ccccc32)cc1 | 8 | · | · | 13% | · | 1.5
C=CCC1(CC=C)CCCN1C(=O)c1ccc2oc(CCCC)nc2c1 | 54 | -1.9 | -15 | ? | 9 | -0.2
CCOC(=O)c1c(S(=O)(=O)N2CCC(C(=O)Nc3ncccc3C)CC2)c(C)n(C)c1C | -2 | · | · | 1.4% | · | -1.0
COC(=O)[C@H](CC(C)C)NC(=O)CCc1nnc(COc2ccccc2)o1 | 36 | -6.0 | -2 | 1.8% | -2 | 0.0
COc1cc2c(cc1CNC[C@H]1O[C@@H](n3cnc(C(N)=O)n3)[C@H](O)[C@@H]1O)OCO2 | -4 | -3.3 | -2 | 0.2% | -2 | -0.5
COc1ccc(N2N=NN(C(C)C)C2=C(Cl)c2nnnn2-c2ccc(OC)cc2)cc1 | 12 | -0.6 | -13 | -4.6% | 0 | 0.1
COc1ccc(OCc2nc(N)nc(Nc3ccccc3)n2)cc1 | -6 | -3.0 | -4 | 5.3% | -2 | 0.1
O=C(N/N=C/c1ccc(N2CCOCC2)cc1)c1ccccc1NS(=O)(=O)c1cccs1 | 62 | -3.5 | 3 | 0.5% | -3 | -1.2
CCCn1c(SCC(=O)NC2CCCCC2)nnc1-c1cccnc1 | -10 | -2.4 | 0 | 4.9% | 6 | 0.3
O=C(c1ccc(F)cc1)C1CCN(C(=O)Nc2ccccc2Cl)CC1 | 1 | 2.0 | -9 | -0.2% | -1 | -0.1
CC(C)(C)C(=O)O/N=C(\N)c1ccc(Br)cc1 | -12 | 0.7 | -7 | 13% | 7 | 0.0
COc1ccccc1OCCn1c(C(C)Oc2ccccc2)nc2ccccc21 (stereo unspecified) | 68 | · | · | 0.4% | · | 4.9
CCOC(=O)c1c(C)[nH]c(C(=O)COC(=O)c2ccncc2)c1C | -22 | 0.1 | -9 | 0.7% | 2 | 1.4
Cc1cccc(C)c1OCC(=O)N(Cc1ccc(Cl)cc1)CC1CCCO1 (stereo unspecified) | -6 | · | · | -0.3% | · | -0.1
Cc1ccc(-c2nc(SCc3ccc(Br)cc3)n3[nH]c(=O)cc3n2)cc1 | -3 | · | · | 2.5% | · | -0.4
Cc1cccc(NC(=O)NC2CCCc3ccccc32)c1 (stereo unspecified) | 32 | -1.9 | -7 | -0.1% | 6 | 0.8

Quoted at random: 2 records from the list.
SMILES | TRPML1 blocker | D2 ag | D2 potentiator | PINK1 modulator | Six1-Eya2 blk | TRPML1 ag
CCOC(=O)c1c(C)[nH]c(C(=O)COC(=O)c2ccncc2)c1C | -22 | 0.1 | -9 | 0.7% | 2 | 1.4
CCCCn1c(SCC(=O)N2c3ccccc3CCc3ccccc32)nc2c1c(=O)n(C)c(=O)n2C | -10 | -2.2 | 13 | 0.8% | 1 | 1.4

Next results follow.
SMILES | TRPML1 blocker | D2 ag | D2 potentiator | PINK1 modulator | Six1-Eya2 blk | TRPML1 ag
Cc1oc(-c2ccccc2F)nc1CN1CCC(C(=O)NC2CC2)CC1 | 5 | 1.8 | -12 | · | -1 | -0.5
O=C(CSc1nnc(NC(=O)c2ccco2)s1)Nc1cccc(F)c1 | 0 | 0.2 | 16 | -2.6% | -25 | 0.2
O=C(/C=C/Nc1ccccc1)c1cnc(-c2ccccc2)s1 | 10 | -1.6 | -6 | 17% | 2 | 1.2
Cn1c(N)c(C(=O)COC(=O)c2ccc3c(c2)C(=O)N(c2ccc(Cl)cc2)C3=O)c(=O)n(C)c1=O | 38 | 2.7 | -5 | 1.6% | -3 | 0.9
CC(C)(C)c1ccc(C(O)c2ncc(-c3cccc(F)c3)[nH]2)cc1 (stereo unspecified) | · | -1.3 | -1 | 17% | -7 | 0.4
CCOC(=O)c1cc(CC)sc1NC(=O)CN1CCN(C(=O)c2ccco2)CC1 | 1 | -1.3 | -38 | -1.8% | -15 | 2.0
CC(=O)N1c2ccc(S(=O)(=O)N3CCCC(C(=O)NC4CCCC(C)C4C)C3)cc2CC1C (stereo unspecified) | 14 | 6.4 | -6 | 0.3% | 3 | 2.8
CC1CCCC(NC(=O)COC(=O)c2ccc([N+](=O)[O-])o2)C1C (stereo unspecified) | 0 | 2.8 | 7 | 1.0% | 9 | -0.9
